Source: PubChem (National Center for Advancing Translational Sciences (NCATS))
Sfp PPTase inh – Sfp phosphopantetheinyl transferase inhibition | Q9F4F7 | Biochemical Sfp PPTase activity, qHTS | Potency, µM, inactives show max response, negative = inhibition, actives largely listed as inhibitors | 3.5% of 310,000 active; active = well fitted inhibition curve with a large enough effect; inconclusive = small, poorly fitted or top-dose-only effect, or another doubt; inactive = no such curve, though single readings can be large or run the other way;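 also: the enzyme is Sfp with the accession as filed and its product quenches rhodamine fluorescence; potency is read from the fitted curve at half-maximal effect; 0% = enzyme reaction without inhibitor and -100% = no enzyme wells; top concentration of the series not given in the record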
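Buffer: 50 mM Hepes-Na pH 7.6, 10 mM MgCl2, 0.01% Nonidet P-40, 0.01% BSA. Enzyme 15 nM, pre-exposed to compound 15 min; substrates then added and fluorescence change tracked over 30 min.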
ClpP mod – qHTS Assay for Activators of ClpP | ATP-dependent Clp protease proteolytic subunit (Bacillus subtilis (strain 168)), P80244 | 1.9% of 340,000 active | AID 651965, 2013 | purified B. subtilis ClpP, FRET peptide cleavage, 20 min | Potency, µM (doses to about 57.5 µM), inactives show at the top dose activity change, negative = active; active = well fitted falling curve with a large enough effect; inconclusive = small, poorly fitted or top-dose-only effect; inactive = no such curve, though single readings can be large or run the other way; also: potency is read from the fitted curve at half-maximal effect; the source files actives as falling curves though it sought activators and does not explain the sign; nearly all actives have a fitted effect of over 65% in size; many hits overshoot -100%
Target sequence (P80244 whole entry, looked up): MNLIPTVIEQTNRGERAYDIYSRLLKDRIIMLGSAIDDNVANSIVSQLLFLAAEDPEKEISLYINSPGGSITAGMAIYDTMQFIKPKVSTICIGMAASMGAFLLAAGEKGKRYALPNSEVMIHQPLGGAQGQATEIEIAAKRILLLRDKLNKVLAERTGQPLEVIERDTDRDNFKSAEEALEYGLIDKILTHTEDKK
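FRET quenching reversal measured ClpP activation: 10 microg/mL B. subtilis ClpP at pH 8 with the FRET-FV decapeptide, read at 430 nm after 320 nm excitation. The 20-min minus 0-min signal was scaled between DMSO/no-enzyme wells and ADEP (5.8 microM final).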
gsp antag – gsp mutant antagonism; gsp-mutant cells, cAMP HTRF, 30 min; control for the full effect not named in the record; Potency, µM (titrated, usually from 76.9 µM), without a hit: at the top dose activity change, negative = inhibition, most hits filed as inhibitors; 0.4% of 340,000 active; active = falling curve of any shape with a large fitted effect; inconclusive = falling curve, mostly with a smaller effect; inactive = flat or rising curve; cell line not stated here;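 also: intracellular cAMP measured with PDE inhibitor Ro 20-1724 present during compound exposure; potency is read from the fitted curve at half-maximal effect; % is scaled to controls: 0 for no effect and ±100 for the full control effect; nearly all actives have a fitted effect of over 65% in size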
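Measurement of cellular cAMP by homogeneous time-resolved fluorescence following a 30 min compound exposure at 37C. The PDE inhibitor […] was present throughout; the assay buffer was DPBS with 0.05% BSA and 0.005% Tween 20.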
gsp ag – activates gsp, the McCune-Albright syndrome mutation. Potency, µM (doses to about 76.9 µM), for the others: at the highest dose activation (cAMP increase), actives largely listed as activators. 0.13% of 340,000 active. gsp mutant cells, cAMP HTRF, 30 min; control for the full effect not named in the record; active = well fitted activation curve with a large enough effect; inconclusive = small, poorly fitted or top-dose-only effect, or another doubt; inactive = no such curve, though single readings can be large or run the other way; cell line not stated here;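 also: phosphodiesterase inhibitor Ro 20-1724 added with compounds to block cAMP breakdown; potency is read from the fitted curve at half-maximal effect; nearly all actives have a fitted effect of over 60% in size; about a fifth of the inactives were tested at one dose only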
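Cells stably selected in G418 were plated at 2000/well, grown 16-24 hr, then given compounds in DMSO with the PDE inhibitor […] (300 uM solution added) for 30 min at 37C; cAMP was read by HTRF.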
Menin MLL FP FL – displaces fluorescein MLL peptide from human menin. 290,000 tested, under 10 active. FP activity change, % at 61.4 µM. Fluorescence polarization, fluorescein-MLL peptide displacement from menin; inconclusive = falling polarisation curve, or a change in total fluorescence; inactive = total fluorescence flat and polarisation flat or rising; no compound was filed as active; the % refers to the polarisation; negative = inhibition;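 also: % of control where 0% means no effect; inhibitors lower the polarisation; unlabelled MLL peptide was the positive control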
TRPV1 potentiator – potentiators of human vanilloid receptor 1 (TRPV1) | Q8NER1 | TRPV1-expressing cells, Fluo-8 calcium influx, capsaicin EC20 potentiation; host cell line not named in the record; control for the full effect not named in the record | potentiation, % at 8.33 µM | 0.02% of 320,000 active | AID 540277; active means potentiation above 80%; inconclusive means 30% to 80%; inactive means below 30%; also: 0% is about no effect
Target sequence (Q8NER1 whole entry, looked up): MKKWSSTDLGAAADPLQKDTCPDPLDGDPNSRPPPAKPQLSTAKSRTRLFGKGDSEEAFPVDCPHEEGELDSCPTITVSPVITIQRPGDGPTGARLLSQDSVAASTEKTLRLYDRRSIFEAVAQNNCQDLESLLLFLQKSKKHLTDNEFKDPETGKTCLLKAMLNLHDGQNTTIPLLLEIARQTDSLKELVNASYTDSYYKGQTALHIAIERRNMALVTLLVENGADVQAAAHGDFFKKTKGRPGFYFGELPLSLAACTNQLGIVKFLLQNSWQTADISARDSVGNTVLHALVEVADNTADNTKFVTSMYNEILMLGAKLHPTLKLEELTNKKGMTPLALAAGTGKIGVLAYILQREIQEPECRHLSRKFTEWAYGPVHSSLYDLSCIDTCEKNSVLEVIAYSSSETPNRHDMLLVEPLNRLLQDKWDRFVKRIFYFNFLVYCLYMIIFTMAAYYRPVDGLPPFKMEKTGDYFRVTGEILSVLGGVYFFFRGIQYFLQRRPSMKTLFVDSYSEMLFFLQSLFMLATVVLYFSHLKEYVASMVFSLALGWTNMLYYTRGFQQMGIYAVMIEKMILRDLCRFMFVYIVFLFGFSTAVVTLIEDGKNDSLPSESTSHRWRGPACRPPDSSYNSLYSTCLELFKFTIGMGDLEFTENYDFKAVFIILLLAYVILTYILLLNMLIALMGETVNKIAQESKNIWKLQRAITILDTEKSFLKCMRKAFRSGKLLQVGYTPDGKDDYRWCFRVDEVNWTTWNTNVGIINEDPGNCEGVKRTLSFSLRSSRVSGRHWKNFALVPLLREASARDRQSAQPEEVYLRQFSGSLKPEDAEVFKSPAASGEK
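Fluo-8 calcium influx in TRPV1-expressing cells, kinetic read (ex 480/em 520 nm). Compound added and read 3 min for agonist activity, followed by capsaicin at EC20 final and 2 min further read for enhancement.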
TRPML1 inh – inhibitors of human TRPML1 channel. TRPML1-inducible cells, Ca2+ dye fluorescence, FDSS; hits give low values; inhibition of EC80 agonist-evoked calcium signal. Q9GZU1. activity change, negative = inhibition, % (test concentration not listed). AID 624415. 0.02% of 390,000 active; in the data active means activity change below about -50%; inconclusive means about -30% to -50%; inactive means above about -30%;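 also: stimulus is agonist 54-4 at its EC80 concentration; % is scaled to controls: 0 for no effect and ±100 for the full control effect; compound concentration not given in the record; the text of the record puts the active cut at -80%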
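TRPML1-DL cells, Tet-induced overnight (~16 h, 37 °C) at 1,500 cells/well, were loaded with Ca8 no-wash dye plus quencher for 45-90 min at room temperature. Compounds were pinned during FDSS kinetic reading; agonist 54-4 at EC80 (4 uM final) then added.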
* marks the source's active call; other numbers are inactive results; ? = inconclusive; · = no result given; & = joins results of further samples; [ ] = another dose, or the depositor's remark.

SMILES	Sfp PPTase inh	ClpP mod	gsp antag	gsp ag	Menin MLL FP FL	TRPV1 potentiator	TRPML1 inh
COc1cc(Cl)c(C)cc1NC(=O)CSc1nnc(CN2CCCC2)o1	·	2.2%	1%	-29%	·	·	6
Cc1ccc(-c2nc(N)c3c(-c4ccc(C)cc4)nn(C(C)(C)C)c3n2)cc1	13%	-3.6%	?	-43%[inhibitor]	-0.7	-29	0
CC(=O)N1CCN(S(=O)(=O)c2cccc(C(=O)OCc3ccc(C(C)(C)C)cc3)c2)CC1	·	2.0%	?	9%	·	-11	12
CCOC(=O)c1c(C)[nH]c(N=Nc2ccccc2C)c1C	4%	-0.4%	2%	-51%[inhibitor]	5.4	-14	4
Cc1cc(OCC(=O)OCC(=O)N2CCCCC2)ccc1Cl	·	-1.5%	·	?	·	·	18
O=C(O)C1C2CC3C(OC(=O)C31)C2Cl (centres undefined)	5%	0.5%	3%	0%	2.1	-1	-2
CCOc1ccc(C(=O)Oc2cc(C)[nH]c(=O)c2[N+](=O)[O-])cc1	14%	1.4%	6%	?	2.3	11	1
Cc1ccc(-c2csc3ncnc(Sc4nnc(CN5CCCCCC5=O)o4)c23)cc1	-15%	-1.4%	9%	2%	-0.1	0	35
CCc1nc2c(cnn2-c2ccc(Cl)cc2)c(=O)n1-c1ccc2c(c1)OCCO2	5%	1.1%	13%	-16%	3.4	9	18
Cc1noc(C)c1C(=O)Nc1nccs1	15%	0.4%	9%	27%	·	1	-1
Cc1nc(NC(=O)CSc2nnnn2C)sc1C	6%	-1.7%	10%	-59%[inhibitor]	-1.5	-11	-1
Cc1cccc(-n2cnc(C(=O)N/N=C\c3ccc(Br)cc3)c2)n1	7%	-2.4%	1%	-37%[inhibitor]	-1.4	-12	19
Cc1ccc(OCC(=O)OCC(=O)c2ccccc2)cc1C	-23%	0.2%	-4%	22%	·	-5	3
Cc1cc(OCC(=O)Nc2c(C)n(C)n(-c3ccccc3)c2=O)ccc1[N+](=O)[O-]	16%	·	6%	-5%	-2.3	7	10
O=C(CN1CCN(c2ccccc2F)CC1)NCc1ccccc1	1%	1.3%	-10%	0%[15.4 µM]	0.0	-12	-1
COc1cc(/C=C/C(=O)N2CC(C)OC(C)C2)cc(OC)c1OC (centres undefined)	6%	0.2%	6%	-9%[15.4 µM]	-0.9	0	1
CCOC(=O)c1ccc(NC(=O)N2CCN(c3cccc(OC)c3)CC2)cc1	-4%	·	-33%	-2%[15.4 µM]	-3.7	-20	-5
Cc1ccc(C(C)C)c(OCC(O)CN2CC(C)OC(C)C2)c1 (centres undefined)	20%	-1.8%	-9%	?	1.3	-8	18
CCN(CC)C(=O)c1sc(NC(=O)C(Sc2ccccc2)c2ccccc2)c(C(=O)OC(C)C)c1C (centres undefined)	-12%	-3.7%	-19%	3%	0.7	-8	68
CC1CCN(c2ccccc2N)CC1	1%	0.0%	9%	-27%	1.9	0	-9
O=C(COC(=O)c1ccccc1SCC(=O)NC1CCCCC1)NC1CCCCC1	12%	-2.9%	41%[activator]	0%	1.4	2	-21
CC1(C)Cc2c(sc(NC(=O)c3ccco3)c2C#N)CO1	?	-0.3%	-6%	2%	12	-3	4
Cc1nc2cc(NC(=O)CS(=O)(=O)c3ccccc3)ccc2s1	·	-2.2%	2%	-8%[15.4 µM]	·	8	16
CCC1=C(OC(=O)N(CC)CC)N2C(=O)OC(=NCCc3c[nH]c4ccccc34)[C@]2(C)[C@H]2C1=CC[C@H]1C(=O)NC(=O)[C@H]12	26%&5%	0.6%	1%	1%	-0.8&3.7	-19	-5

Reprinted from the results shown for reference:
SMILES	Sfp PPTase inh	ClpP mod	gsp antag	gsp ag	Menin MLL FP FL	TRPV1 potentiator	TRPML1 inh
Cc1ccc(OCC(=O)OCC(=O)c2ccccc2)cc1C	-23%	0.2%	-4%	22%	·	-5	3
Cc1cc(OCC(=O)Nc2c(C)n(C)n(-c3ccccc3)c2=O)ccc1[N+](=O)[O-]	16%	·	6%	-5%	-2.3	7	10
O=C(CN1CCN(c2ccccc2F)CC1)NCc1ccccc1	1%	1.3%	-10%	0%[15.4 µM]	0.0	-12	-1
COc1cc(/C=C/C(=O)N2CC(C)OC(C)C2)cc(OC)c1OC (centres undefined)	6%	0.2%	6%	-9%[15.4 µM]	-0.9	0	1
CCOC(=O)c1ccc(NC(=O)N2CCN(c3cccc(OC)c3)CC2)cc1	-4%	·	-33%	-2%[15.4 µM]	-3.7	-20	-5
Cc1ccc(C(C)C)c(OCC(O)CN2CC(C)OC(C)C2)c1 (centres undefined)	20%	-1.8%	-9%	?	1.3	-8	18

Continued:
SMILES	Sfp PPTase inh	ClpP mod	gsp antag	gsp ag	Menin MLL FP FL	TRPV1 potentiator	TRPML1 inh
CC(=O)c1cc2c(=O)c3ccccc3oc2nc1C	·	-2.1%	7%	0%	·	·	1
Cc1ccc(Nc2nc(/N=C/N(C)C)n[nH]2)cc1C	7%	-1.5%	-6%	-11%[15.4 µM]	4.5	22	-10
CCOc1ccc(N2CC(C(=O)Nc3cccc(S(=O)(=O)N4CCOCC4)c3)CC2=O)cc1 (centres undefined)	·	0.5%	·	-28%	·	·	8
O=C(Cc1cccs1)NCCS(=O)(=O)N1CCN(c2cccc(Cl)c2)CC1	·	-3.2%	-4%	-12%	·	-15	6
CCc1ccc(C2C(C#N)=C(N)C(C#N)(C#N)C3=CCC(C(C)(C)C)CC32)cc1 (centres undefined)	-1%	-0.3%	-11%	-6%	?	-7	8
C=CCc1ccc(OCCn2nnc3ccccc32)c(OC)c1	1%	0.9%	-11%	10%	3.5	14	25
CC(=O)Nc1ccc(NS(=O)(=O)c2ccc3c(c2)oc(=O)n3C)cc1	12%	-0.1%	4%	-6%	-1.4	-13	2
C=CCSC1=C(C#N)C(c2ccccc2)CC(=O)N1 (centres undefined)	-29%	1.0%	8%	-3%	0.3	-17	5
O=C(CCc1ccc(S(=O)(=O)N2CCOCC2)cc1)Nc1ccc2ccccc2c1	18%	-1.7%	-15%	-18%	5.8	1	-14
COn1c(-c2ccc(Cl)cc2)nc2ncccc21	9%	3.8%	-2%	20%	5.3	0	3
Cc1c(/C(O)=C2\C(=O)C(=O)N(CCCN(C)C)C2c2ccccc2)cnn1-c1ccccc1 (centres undefined)	11%	·	-6%	0%	3.9	8	13
CCn1c(COc2ccc(=O)n(-c3ccccc3)n2)nnc1SCC(=O)OC	17%	·	3%	4%[15.4 µM]	-7.2	13	15

Arranged by the number under gsp antag (rising): 3 from the list above.
structure | Sfp PPTase inh | gsp antag | gsp ag | Menin MLL FP FL | TRPML1 inh
O=C(CCc1ccc(S(=O)(=O)N2CCOCC2)cc1)Nc1ccc2ccccc2c1 | 18% | -15% | -18% | 5.8 | -14
Cc1ccc(Nc2nc(/N=C/N(C)C)n[nH]2)cc1C | 7% | -6% | -11%[15.4 µM] | 4.5 | -10
CCn1c(COc2ccc(=O)n(-c3ccccc3)n2)nnc1SCC(=O)OC | 17% | 3% | 4%[15.4 µM] | -7.2 | 15

Continuation.
SMILES	Sfp PPTase inh	ClpP mod	gsp antag	gsp ag	Menin MLL FP FL	TRPV1 potentiator	TRPML1 inh
CS(=O)(=O)N(CC(=O)Nc1ccccc1Cl)c1ccc(Cl)cc1	11%	·	·	0%[15.4 µM]	-0.2	24	-6
Cc1snc(SCc2c(F)cccc2Cl)c1C#N	-5%	-2.7%	3%	-7%	5.0	-21	-7
CN(C)S(=O)(=O)c1ccc(S(=O)(=O)N2CCCC2)cc1	5%	1.4%	-13%	4%	0.4	4	49
CC(C(=O)Nc1nccs1)c1ccc([N+](=O)[O-])cc1 (centres undefined)	7%	-1.1%	4%	?	-5.7	?	-4
Cc1c(C(=O)O)cnc2cc(-c3ccc(Cl)cc3)nn12	9%	-22%	-7%	-1%	4.6	-1	-4
COC(=O)c1cc(S(=O)(=O)N2CCN(c3ccc(OC)cc3)CC2)cn1C	19%	-0.7%	-4%	30%	-6.2	-6	6
COc1ccc(CN2C(=O)c3cccnc3C2Nc2ccc(C)cc2)cc1 (centres undefined)	-5%	-1.0%	-9%	18%	3.6	-14	24
CC(C)C(=O)Nc1ccc(Br)cc1Cl	3%	·	9%	?	2.2	6	-5
CCN1C(=NCCOC)N[C@@H](c2cccc(F)c2)C(C(=O)OC)=C1C	9%&-9%	-3.3%	5%	·	-9.8&-8.6	-9&-5	-1
Cc1ccc(C(=O)NNC(=O)c2ccc(SCC3CCCO3)c([N+](=O)[O-])c2)cc1 (centres undefined)	6%	-0.2%	-3%	-40%[inhibitor]	4.6	5	-3
CSc1nnc(-c2ccco2)n1-c1ccccc1	-16%	-1.5%	6%[15.4 µM]	-1%	-1.0	-1	-1
COc1ccc(C(=O)Nc2ccc(C(=O)OCC(=O)c3ccccc3)cc2)cc1	9%	-11%	21%	4%	4.9	-28	-11
O=C(COC(=O)c1cccnc1Cl)NC(=O)c1ccc(OC(F)F)cc1	·	-0.2%	1%	-18%[15.4 µM]	·	·	-7
CC(C)N1CCN(Cc2coc3ccccc3c2=O)CC1CCO (centres undefined)	9%	·	6%	-12%[15.4 µM]	18	-11	-6
Cc1cccc(NC(=O)c2ccc([N+](=O)[O-])o2)c1C	16%	0.5%	-3%	-6%[15.4 µM]	-2.3	1	7
CCN(CC)CCn1c(N)cc(=O)[nH]c1=O	15%	-2.2%	9%	8%	1.1	-3	6
Nc1cc(C(=O)OCC(=O)NC(c2ccccc2)c2ccccc2)ccc1Cl	7%	25µM*	4%	9%	-3.4	-1	-6
Cc1ccc(N2CC(C(=O)NC3CC3)CC2=O)cc1 (centres undefined)	26%	·	8%	22%	-0.7	1	-9
CN(C)c1ncnc2[nH]ncc12	·	·	5%	24%	·	·	-1
Cc1cc(C(=O)N2CCN(c3ncccn3)CC2)nn1C	15%	·	4%	0%[15.4 µM]	0.1	-1	8
S=c1[nH]c2ccccc2n1CCOc1ccccc1	89µM*	0.0%	0%	?	2.1	9	9
Cc1ccc(CSCC(=O)N/N=C/c2ccc(OCC(=O)Nc3ccc(C)cc3)cc2)cc1	-12%	1.4%	-7%	-33%[inhibitor]	0.6	-1	-1
